# Sa RN4220 lethal: kills Staphylococcus aureus RN4220. S. aureus RN4220 growth, OD600, 16 h. inhibition, % (test concentration not listed). 330,000 tested, 0.33% active. AID 1259311;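 active = z-score of -3 or lower and OD600 up to 0.18 on both plates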;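 note: plate controls were untreated cells for no effect and reference antibiotic for full effect; stock transfer was 100 nL into about 80 µL; one replicate is shown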
# BJeLR viability: BJeLR cell viability loss; BJeLR (HRASV12) viability, CellTiter-Glo ATP luminescence, 48 h; reference of the scale not given here; inhibition, % (concentration not given with the values); 300,000 tested, 0.17% active; AID 1554;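 active = replicate mean above 50%; inconclusive = above 50% but judged a plate artefact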;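 note: 50 nL library stock added to about 25 µL; numbers are from one replicate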
# Sa ugtP lethal: kills S. aureus RN4220 lacking UgtP | 330,000 tested, 0.54% active | growth inhibition, % (test concentration not listed) | S. aureus RN4220 ugtP deletion, OD600 growth, 16 h; some inactives read as strong as hits;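 active = z-score under -3 and OD600 up to 0.15 on both plates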;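 note: plate controls were untreated wells for no effect and antibiotic for full effect; wells of about 80 µL received 100 nL stock; the first replicate is given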
# PrP UTR inh: suppresses PrP 5' UTR mRNA reporter expression; cell-based PrP 5' UTR mRNA reporter, plate reader; inhibition, % (concentration not given with the values); 340,000 tested, 0.35% active; AID 488862;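 active = every replicate at 50% or more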;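 note: 0 = median of the neutral control wells; tested in H4 reporter cells; numbers are from one replicate; inactives centre near -14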
# Autofluor counter: compound fluorescence in toxin protease inhibitor counterscreen. compound autofluorescence counterscreen, microsphere flow cytometry; hits give high values. fluorescence intensity (test concentration not listed). 360,000 tested, 3.1% active;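 active = at least 3 SD above the mean of all compounds, about 16000 in these data; inconclusive = too few beads counted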;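 note: 100 nL of 1 mM stock went into each well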
# Mtb hypoxia rep: reduces hypoxia-regulated biosensor signal in M. tuberculosis | M. tuberculosis hypoxia-regulated fluorescent reporter, fluorescence | fluorescence inhibition, % (concentration not given with the values) | 300,000 tested, 0.1% active | AID 1159583;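 active = 35 to 45% if threefold the growth effect, above 45% if 1.5-fold the growth effect; inactive = the rest, general growth blockers included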;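 note: wells of about 50 µL received 100 nL stock; 0% = vehicle wells and 100% = reference inhibitor wells; whole bacteria with a GFP reporter of the hypoxia response; strong numbers were not always called active; many hits fall short of the cut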
# Mtb hypoxia rep growth: recorded beside Mtb hypoxia rep, whose call it bears; growth inhibition, %; measured here: M. tuberculosis growth (absorbance);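 0% = vehicle and 100% = reference antibiotic; read after six days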
# * marks the source's active call; other numbers are inactive results; ? = inconclusive; nt = no result given; & = joins results of further samples. Not a hit list. About 3.9% of those tested had a hit in this group.
SMILES,Sa RN4220 lethal,BJeLR viability,Sa ugtP lethal,PrP UTR inh,Autofluor counter,Mtb hypoxia rep,Mtb hypoxia rep growth
COc1ccc(Br)c(C(=O)Nc2ccc(F)cc2)c1,2.3,0,-1,-18,5286,5,9
CCCn1c(=O)n(C)c(=O)c2c(SCC(=O)NC34CC5CC(CC(C5)C3)C4)nc(CC(C)C)nc21,3.7,1,0,-6,2461,4,-13
CN(CCO)CC(O)CN(c1ccccc1)c1ccccc1 (stereo unspecified),2.2,-1,2,-15,6078,11,8
CCc1sc(C(=O)Nc2nccs2)cc1C,-1.5,-11,-2,-48,3768,-8,-19
CCN(CC(=O)NCc1ccc(Cl)cc1)C(=O)CSCC(=O)Nc1ccc(OC)cc1,-3.3,5,1,7,5871,-1,4
Cc1[nH]n(-c2ccccc2)c(=O)c1C=Nn1c(C)nc2ccccc2c1=O,15,nt,10,nt,nt,3,4
COc1ccc(C(CCN2CCCC2)c2c(O)cc(OC)cc2OC)cc1 (stereo unspecified),-3.4,-3,-8,5,5872,-5,3
CCOC(=O)CNC(=S)N(Cc1ccc(C)cc1)Cc1ccc(C)o1,4.8,-2,9,-8,2125,4,0
Cc1ccc(C)c(NC(=O)C2CCCC2)c1,2.9,-5,1,-29,6514,5,12
O=C(COC(=O)CNC(=O)c1ccco1)Nc1ncc(Cl)cc1Cl,4.6,nt,1,-23,7994,2,-2
COc1ccc(N2C(=O)CC(N3CCN(c4ccc(S(=O)(=O)N5CCCC5)cc4)CC3)C2=O)cc1 (stereo unspecified),0.3,0,-2,-13,2653,nt,nt
CCOc1cc(CNc2cccc3[nH]c(C)nc23)ccc1OC,0.3,-4,0,-23,3895,-5,5
COc1ccc(/C=N/NC(=O)c2nc(Cl)c(Cl)c(N)c2Cl)cc1COc1ccccc1F,nt,8,nt,-11,4310,nt,nt
CCCc1ccc(C(=O)NNc2cc(Cl)ccc2Cl)cc1,5.2,-6,16,-4,4622,-5,4
O=C(CSc1nc2ccccc2c(=O)[nH]1)c1ccc(O)c(O)c1,6.2,3,-1,-15,5432,4,0
CCOC(=O)c1ccc(NC(=O)C2C3C=CC(C3)C2C(=O)O)cc1 (stereo unspecified),-1.0,1,10,-35,5899,nt,nt
CC1=C(C(=O)Nc2ccccc2)C(c2ccccn2)n2ncnc2N1 (stereo unspecified),4.4,2,2,-14,3630,1,6
CCO[C@@H]1OC(C(=O)N2CCOCC2)=C[C@H](C(C)(C)C)[C@H]1CCCO,nt,7,nt,-10,3925,nt,nt
CCOc1cc(C=NNC(=O)c2cc(C)n(-c3ccc(F)cc3)c2C)ccc1O,4.7,nt,10,nt,nt,-1,4
C#CCNC(=O)C1=C[C@H](c2ccc(C(F)(F)F)cc2)[C@@H](CCCO)[C@H](OCC)O1,nt,4,nt,-4,3469,nt,nt
CCn1c(SCC#N)nc2c(c1=O)C1(CCCC1)Cc1ccccc1-2,-0.1,nt,5,-22,24128*,12,6
CC(C)CN(C(=O)COC(=O)CSc1ccccc1)c1c(N)n(Cc2ccccc2)c(=O)[nH]c1=O,-0.5,-5,-7,3,?,-7,1
Cc1noc(C)c1COC(=O)CCCc1nc2ccccc2s1,2.3,2,7,5,3283,nt,nt
Cc1oc(N=Cc2ccc3c(c2)OCO3)c(C#N)c1C,-1.1,nt,-6,nt,nt,-6,11
CCc1cc2c(=O)c(-c3nc4ccccc4n3C)c(C)oc2c(CN2CCCCC2)c1O,2.9,-5,5,-15,4983,5,-7
Cc1ccc2nc(-c3cccnc3)cc(C(=O)N3CCN(c4ccc([N+](=O)[O-])cc4)CC3)c2c1,41,-2,-80,18,4473,18,20
CCOC(=O)c1c(-c2ccccc2)oc2ccc(O)cc12,2.4,-13,3,-16,4127,15,4
O=C(CS(=O)(=O)Cc1ccccc1)N1CCc2ccccc2C1,6.0,0,16,-32,?,1,2
COc1ccc(OC)c(/C=N/NC(=O)C(O)c2ccccc2)c1 (stereo unspecified),nt,-2,nt,-24,3922,nt,nt
Cc1ccc(C)c(N2CCN(C(=O)COc3cc(=O)n(C)c4ccccc34)CC2)c1,5.9,-5,2,-19,6270,5,10
CC(=O)NC1C(=O)N(CCc2ccccc2)c2ccccc21 (stereo unspecified),5.6,6,-1,-12,9367,-6,13
O=C(CNC(=O)OCc1ccccc1)NCC(=O)Nc1ccc(Br)cc1C(=O)c1ccccc1,6.4,0,-6,-33,1910,2,3
CC(C)CNS(=O)(=O)c1ccc(C(=O)Nc2ccc3c(c2)OCCO3)cc1,4.6,1,15,-45,9257,3,-3
CNC(=O)COC(=O)c1ccc([N+](=O)[O-])cc1Cl,5.2,-1,3,1,2459,2,1
CN(c1c(C#N)c(C(F)(F)F)nn1C)N(S(C)(=O)=O)S(C)(=O)=O,-1.2,-2,-1,-18,3661,-2,8
COc1ccc2[nH]c(=O)c(CN(C(=O)c3cccnc3)c3cccc(C)c3)cc2c1,0.8,-9,3,-18,4728,3,15
O=C(Nc1cccc2ccccc12)c1ccccc1,2.6,0,-4,-49,4376,7,17
O=C(CNc1ccc(Oc2ccccc2)cc1)N1CCOCC1,-10,4,3,-27,5026,nt,nt
Cc1nc2c(-c3ccc(F)cc3)c(C)nn2c(C)c1CCC(=O)NCCN1CCOCC1,7.3,5,-11,-14,4419,4,-1
CC(=O)c1cccc(OCC(=O)Nc2cc(Cl)ccc2-n2cncn2)c1,2.7,8,2,-48,5972,-2,0

# Twelve of the compounds above, with bars between the fields:
SMILES | Sa RN4220 lethal | BJeLR viability | Sa ugtP lethal | PrP UTR inh | Autofluor counter | Mtb hypoxia rep | Mtb hypoxia rep growth
Cc1noc(C)c1COC(=O)CCCc1nc2ccccc2s1 | 2.3 | 2 | 7 | 5 | 3283 | nt | nt
Cc1oc(N=Cc2ccc3c(c2)OCO3)c(C#N)c1C | -1.1 | nt | -6 | nt | nt | -6 | 11
CCc1cc2c(=O)c(-c3nc4ccccc4n3C)c(C)oc2c(CN2CCCCC2)c1O | 2.9 | -5 | 5 | -15 | 4983 | 5 | -7
Cc1ccc2nc(-c3cccnc3)cc(C(=O)N3CCN(c4ccc([N+](=O)[O-])cc4)CC3)c2c1 | 41 | -2 | -80 | 18 | 4473 | 18 | 20
CCOC(=O)c1c(-c2ccccc2)oc2ccc(O)cc12 | 2.4 | -13 | 3 | -16 | 4127 | 15 | 4
O=C(CS(=O)(=O)Cc1ccccc1)N1CCc2ccccc2C1 | 6.0 | 0 | 16 | -32 | ? | 1 | 2
COc1ccc(OC)c(/C=N/NC(=O)C(O)c2ccccc2)c1 (stereo unspecified) | nt | -2 | nt | -24 | 3922 | nt | nt
Cc1ccc(C)c(N2CCN(C(=O)COc3cc(=O)n(C)c4ccccc34)CC2)c1 | 5.9 | -5 | 2 | -19 | 6270 | 5 | 10
CC(=O)NC1C(=O)N(CCc2ccccc2)c2ccccc21 (stereo unspecified) | 5.6 | 6 | -1 | -12 | 9367 | -6 | 13
O=C(CNC(=O)OCc1ccccc1)NCC(=O)Nc1ccc(Br)cc1C(=O)c1ccccc1 | 6.4 | 0 | -6 | -33 | 1910 | 2 | 3
CC(C)CNS(=O)(=O)c1ccc(C(=O)Nc2ccc3c(c2)OCCO3)cc1 | 4.6 | 1 | 15 | -45 | 9257 | 3 | -3
CNC(=O)COC(=O)c1ccc([N+](=O)[O-])cc1Cl | 5.2 | -1 | 3 | 1 | 2459 | 2 | 1

# (listing goes on)
SMILES,Sa RN4220 lethal,BJeLR viability,Sa ugtP lethal,PrP UTR inh,Autofluor counter,Mtb hypoxia rep,Mtb hypoxia rep growth
CCOC(=O)C1CCN(S(=O)(=O)c2c(Cl)ccc3nonc23)CC1,nt,60*,nt,-35,4611,nt,nt
C=C(C(=O)Oc1c(C(C)(C)C)cccc1C(C)(C)C)c1ccccc1,-7.1,nt,5,0,3708,15,4
Cc1noc(C)c1COc1ccc(C(=O)N2CC(C)CC(C)C2)cc1 (stereo unspecified),-2.1,nt,-8,-14,3895,0,5
CC(C)Cn1c(N)c(C(=O)COC(=O)c2cc(F)cc(F)c2)c(=O)n(C)c1=O,2.2,2,-1,-14,5402,3,3
COCCOC(=O)c1c(C)oc2ccc(OCc3cc(C(=O)OC)oc3C)cc12,6.2,5,21,-12&-1,7280,3,12
CCOC(=O)CN1C(=O)CN(c2ccc(C)c(C)c2)C1=O,3.5,-12,5,-20,3263,5,6
COc1ccc(C(=O)NNC(=O)C23CC4CC(CC(C4)C2)C3)c(OC)c1,-0.3,12,10,-23,5322,6,1
Cc1ccc(N2C(=O)C(F)(F)C2c2ccccc2)cc1 (stereo unspecified),nt,6,nt,-12,4312,nt,nt
CN(N)c1nc2ccccc2nc1C(F)(F)F,9.0,-4,17,-16,4467,-5,-9
COc1ccc(C(=O)NCC(=O)OCn2nnc3ccccc3c2=O)cc1OC,0.6,8,3,nt,nt,16,-1
COc1cc(-c2nc3ccccn3c2NCC2CCCO2)ccc1O (stereo unspecified),-1.3,-5,10,-32,11200,5,7
COC(=O)CSC1=C(C#N)C(=O)NC2(CCCCC2)S1,-0.8,5,0,-3,1984,7,1
c1ccc2c(c1)nc(-c1ccncc1)n1nnnc21,4.5,-2,14,-11,4523,2,3
CCOc1ccc(NC(=O)c2csc3c2CCCC3)cc1,nt,0,nt,-65,5552,nt,nt
Cc1cccc(C(=O)NCc2nnc(SCC(=O)Nc3nncs3)n2C)c1,0.0,-4,2,-6,5490,-5,-8
CCCC(c1nnnn1C(C)(C)C)N1CCN(Cc2ccccc2OC)CC1 (stereo unspecified),2.4,4,3,-9,4616,2,6
c1ccc(-c2cc(N3CCCCCC3)n[nH]2)cc1,2.6,1,-12,-25,10058,10,6
CNS(=O)(=O)c1cccc(C(=O)NCC2(N3CCCCC3)CCCCC2)c1,nt,-3,nt,-20,5906,nt,nt
Cc1c2c(nc3c(C)cccc13)OC(C)C2 (stereo unspecified),-4.5,3,2,-16,3432,nt,nt
S=c1nc[nH]c2c1sc1nc(-c3ccccc3)c3c(c12)CCCC3,-14,1,65,-9,2613,14,7
CN1CCN(C(=O)c2ccc(N3CCCC3=O)cc2)CC1,-2.3,3,-2,3,5170,-10,-4
CN(C)S(=O)(=O)c1cccc(NC(=O)CSc2nnnn2-c2ccccc2)c1,1.4,11,7,-8,4029,6,7
CCOC(=O)NC1(C(F)(F)F)NC(=O)N(C2CCCCC2)C1=O (stereo unspecified),3.8,-14,1,-25,10646,6,-3
COC(=O)c1cc(C(=O)OC)cc(-n2c(C)cc(C(=O)CC#N)c2C)c1,0.9,-13,-7,-11,9046,-2,5
COc1cc(/C=N/NC(=O)CCn2cnc(-c3ccccc3)c2-c2ccccc2)ccc1O,nt,1,nt,-6,2014,nt,nt
CN1CCN(C(=S)NC(=O)c2ccc(-c3ccccc3)cc2)CC1,-1.8,-14,10,-5,4146,5,12
CCc1ccc(CN(C)C(=O)c2cc(S(=O)(=O)N3CCOCC3)ccc2N2CCCC2)cc1,3.5,-1,-3,-3,?,0,-1
O=c1nc2cccc3c2=c(c1=C(O)c1ccccc1)c1ccccc1c3=O,4.6,nt,0,nt,nt,2,5
Cc1cc(Cl)ccc1N(CC(=O)NCc1ccccc1)S(C)(=O)=O,6.7,9,7,-7,4246,17,4
COc1ccc(-n2c(=S)[nH]c3[nH]ncc3c2=O)cc1,5.3,2,-2,-16,4217,13,7
Cn1ccc2cc(NC(=O)Nc3cccnc3)ccc21,2.8,-3,-9,-17,4690,9,10
O=C(CCCn1c(=S)[nH]c2ccsc2c1=O)Nc1ccc2c(c1)OCCO2,2.2,-11,4,-45,4157,1,14
C=CCn1cc(C(C)=O)c(=O)[nH]c1=O,8.4,4,14,1,2031,19,0
CCOc1ccc(C=NNC(=O)c2cc(-c3ccco3)nc3ccccc23)cc1,2.9,nt,-7,nt,nt,3,15
O=C(COC(=O)c1ccc(Br)cc1)NCc1ccc(F)cc1,9.0,-38,2,-3,4215,6,8
CCCC(=O)NCC(c1cccs1)S(=O)(=O)c1ccc(C)cc1 (stereo unspecified),0.9,8,2,9,5899,4,-5
CCC1(CC)C(=O)C2=C3C(CC(C(=O)OC)=CC(C(=O)OC)C31)C1C(=O)N(CC(=O)OC)C(=O)C1C2C (stereo unspecified),3.6,nt,-7,nt,nt,16,11
CCOC(=O)c1ccc([N+](=O)[O-])c(CS(=O)(=O)c2ccc(Cl)cc2)c1,6.0,7,-1,-3,3935,7,2
COc1ccc(CCC(=O)Nc2ccc(S(=O)(=O)Nc3ncccn3)cc2)cc1,3.0,nt,2,-22,nt,17,12
NC(=O)C1CCN(C(=O)c2cc(-c3ccccc3Cl)nc3ccccc23)CC1,0.5,nt,5,-19,3894,9,-2
